Screens: PubChem, several laboratories
Ecoli rRNA inh: reduced GFP signal of wild-type E. coli, primary screen, bacterial rRNA inhibitor project, GFP/RFP fluorescence, OD600, single point. 350,000 compounds, 1.6% hits. E. coli WT GFP vs humanized-ribosome RFP mutants, 24 h; stronger effect = lower value; DMSO median 0, no signal -100. GFP signal change (wild-type ribosome), % (no concentration beside the values);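 active = significant combined selectivity score with lowered wild-type GFP, culture density cut under 30%, mutant RFP and density less affected; inactive = any of these conditions unmet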; also: one replicate is shown; some compounds called inactive have numbers as strong as hits
FGF22 binding: binders of human FGF22 protein, primary screen, FGF22 synaptogenesis inhibitor project, biophysical, thermal shift, single point. recombinant FGF22 thermal shift, SYPRO orange fluorescence; percent of sucrose octasulfate shift, DMSO zero. calls only at 9.99 µM. Fibroblast growth factor 22 (Homo sapiens), Q9HCT0. AID 651658, 2012. 340,000 compounds, 1.5% hits;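 active = melting point raised past a set limit in the mean and every replicate; three in four hits are not shown here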
Target sequence (Q9HCT0 whole entry, looked up): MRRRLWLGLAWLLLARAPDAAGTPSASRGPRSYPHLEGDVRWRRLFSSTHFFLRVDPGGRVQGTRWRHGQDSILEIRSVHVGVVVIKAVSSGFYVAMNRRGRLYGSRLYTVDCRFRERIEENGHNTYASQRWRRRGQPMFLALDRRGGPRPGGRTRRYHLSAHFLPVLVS
A1 inh: caspase 3/7 activation in MEF A1-2A-BIM cells, primary screen, A1 inhibitor project, cell-based, luminescence, HTS | Caspase-Glo 3/7 luminescence, 3 h; percent of clofoctol response, vehicle zero | caspase activation, % (no concentration beside the values) | 330,000 compounds, 0.066% hits | AID 2462, 2010;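 active = over half of replicate activation scores above 10%, or exactly half above 10 with the replicate mean above 10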;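 also: wells of about 30 µL received 50 nL stock; many hits fall short of the cut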
T cruzi repl: inhibitors of intracellular T. cruzi growth, primary screen, luminescence, NIH3T3 host cells; inhibition, % (concentration not given with the values); AID 1885, 2009; 300,000 compounds, 1.4% hits; T. cruzi beta-gal in NIH3T3, 90 h;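 active = mean inhibition across valid replicates above about 55%, limit read from the data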;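 also: signal also drops with host cell toxicity which is not excluded here; 0% = plate median of DMSO wells and 100% = zero luminescence signal; higher percent means less beta-gal luminescence so fewer parasites; stock transfer was 50 nL into about 50 µL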
UCH37 inh: inhibitors of human UCH37 deubiquitinase, primary screen, biochemical, Ub-AMC cleavage, fluorescence | Ubiquitin carboxyl-terminal hydrolase isozyme L5 (Homo sapiens), Q9Y5K5 | purified proteasome/UCH37 | inhibition, % (concentration not given with the values) | 330,000 compounds, 0.33% hits;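 active = mean of two replicates above 20%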;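 also: 0% = compound-free wells with enzyme and 100% = wells lacking proteasome; stock transfer was 100 nL into about 20 µL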
Target sequence (Q9Y5K5 whole entry, looked up): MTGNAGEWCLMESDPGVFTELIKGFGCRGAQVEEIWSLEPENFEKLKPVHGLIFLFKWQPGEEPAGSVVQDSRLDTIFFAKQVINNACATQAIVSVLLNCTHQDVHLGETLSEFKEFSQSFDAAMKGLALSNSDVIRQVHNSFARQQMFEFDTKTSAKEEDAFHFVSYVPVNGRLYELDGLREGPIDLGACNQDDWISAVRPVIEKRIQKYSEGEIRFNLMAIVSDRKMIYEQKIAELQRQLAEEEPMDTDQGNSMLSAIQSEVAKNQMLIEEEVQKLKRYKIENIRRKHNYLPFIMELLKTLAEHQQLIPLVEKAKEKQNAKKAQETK
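Test system – human UCH37 enzyme supplied as purified proteasome complex · Incubation – 30 min preincubation with enzyme, 25 min cleavage at room temperature · Detection – AMC fluorescence from Ub-AMC cleavage, excitation 355 nm, emission 460 nm · Benchmarks – no-proteasome wells (full inhibition) and compound-free wells (no inhibition)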
Beta apoptosis: inhibitors of cytokine-induced beta cell apoptosis, primary screen, luminescence; INS-1E cytokine-induced death, ATP luminescence, 48 h; percent of positive-control rescue, neutral wells zero; 300,000 compounds, 0.8% hits; protection from apoptosis, % (concentration not given with the values);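 active = all replicates at 75% or more, or half of them and the mean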;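 also: 0% = cytokine-treated negative control wells and 100% = positive control rescue; higher means more ATP so stronger rescue from cytokine killing; wells of about 40 µL received 100 nL stock; the first replicate is given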
E coli growth: E. coli growth inhibition, primary screen, OD600; Escherichia coli growth, 23 h; stronger effect = lower value; OD600 absorbance (concentration not given with the values); 330,000 compounds, 0.21% hits; AID 1053175, 2014;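 active = OD600 absorbance below the run mean of sample wells minus 3.6 SD, in any replicate, cut at about 0.56 in these data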;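 also: stock transfer was 300 nL into about 60 µL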
AF4-AF9 inh: inhibitors of AF4 peptide binding to AF9, primary screen, biochemical, AlphaScreen, biotin-AF4 peptide, FLAG-AF9, single point; 350,000 compounds, 0.47% hits; inhibition, % at 10 µM; Protein AF-9 (Homo sapiens), P42568; AID 651704, 2012;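 active = every replicate reaching a set inhibition limit, whatever the replicate mean, cut at about 25% in these data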;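 also: 0% = plate neutral control median and 100% = total signal loss; the record names both 10 and 1 µM as test concentration; the first replicate is given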
Ecoli rRNA inh OD600: further read-out of Ecoli rRNA inh, marked with its call; OD600 change, %; measured here: OD600 growth;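 optical density of the mix in the first replicate; 0 = DMSO median and -100 = no signal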
Ecoli rRNA inh RFP: also measured in Ecoli rRNA inh; calls as there; RFP signal change, %; measured here: RFP humanized mutant strains;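 first replicate; 0 = DMSO median and -100 = no signal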
Numbers without * were called inactive; i = inactive; . = not tested or not shown. A portion of the library; the hit share may differ from the screen's.

molecule	Ecoli rRNA inh	Ecoli rRNA inh OD600	Ecoli rRNA inh RFP	FGF22 binding	A1 inh	T cruzi repl	UCH37 inh	Beta apoptosis	E coli growth	AF4-AF9 inh
O=C(/C=C/c1ccc(Cl)cc1Cl)NC(=S)Nc1ccccn1	.	.	.	.	-0.3	-3	3.5	9	0.73	.
CCOc1ccc(C(=O)Nc2nnc(SCC(=O)NCC3CCCO3)s2)cc1OCC (centres undefined)	7	-4	3.0	i	0.2	-4	4.3	0	0.69	-16
Cc1nn(-c2ccccc2)c2sc(-c3n[nH]c(=S)o3)cc12	.	.	.	.	-0.6	-8	-370	4	0.67	.
Cc1nn(CC(=O)OCC(=O)Nc2ccccc2[N+](=O)[O-])c(C)c1[N+](=O)[O-]	8	14	1.6	i	-0.7	-6	3.9	-6	0.68	-14
CN(C)c1cccc(C(=O)Nc2cc(C(F)(F)F)ccc2-n2cnc3ccccc32)c1	-8	0	-5.7	i	-0.1	11	-21	1	0.69	4.1
Cc1nc(SCC(=O)NCCc2ccc(Cl)cc2)nc(C)c1C	-28*	-16*	-2.8*	i	0.4	1	-0.8	1	0.66	-7.9
CC(=O)Nc1ccc(NC(=O)C(C)Sc2nnc(C3CC3)n2-c2ccccc2)cc1 (centres undefined)	1	8	-0.1	i	.	.	7.5	.	0.64	-6.1
Cc1cc(S(=O)(=O)n2cnc3cc([N+](=O)[O-])ccc32)ccc1Cl	19	4	-1.0	i	0.4	-8	5.3	-4	0.66	1.7
O=C(CSc1nccc(=O)[nH]1)NC1CCCCCC1	7	2	-3.4	i	-0.2	.	3.1	-4	0.7	-3.0
COc1ccccc1-n1cnc2c(c1=O)c1nc3ccccc3nc1n2CCc1ccccc1	10	9	-2.5	i	2.5	17	-9.4	-2	0.7	-1.8
COc1cc2c(cc1NC(=O)C(C)Sc1ccc(NC(C)=O)cc1)oc1ccccc12 (centres undefined)	.	.	.	.	-0.5	37	7.5	7	0.74	.
Cc1cc(NC(=O)CCC(=O)N(CC(=O)NCC2CCCO2)c2ccc3c(c2)OCCO3)no1 (centres undefined)	.	.	.	.	-0.2	-2	-0.2	-12	0.66	.
CCOC(=O)c1c(NC(=O)CN2CCCCC2)sc(C)c1C	-7	-12	-6.7	i	0.3	26	-1.1	5	0.66	0.0
COc1cccc(-c2cc(C(=O)Nc3cc(OC)c(OC)c(OC)c3)no2)c1	.	.	.	.	0.0	4	1.1	3	0.7	.
N=C1C(c2nc(-c3cccc([N+](=O)[O-])c3)cs2)=C(O)CN1NC(=O)c1ccco1	13	11	1.4	i	0.0	-17	0.5	-5	0.66	-4.7
O=S(=O)(NCC(c1cccnc1)N1CCN(Cc2ccccc2)CC1)c1cc(F)ccc1F (centres undefined)	-1	0	1.0	i	-0.1	59*	3.8	6	0.7	5.7
CCOC(=O)N1CCN(S(=O)(=O)c2cccc3ccc(C)nc23)CC1	.	.	.	.	0.5	-5	-0.3	-15	0.73	.
CCOC(=O)n1c(=O)n(C)c2ccc(Cl)cc21	-3	-9	-2.6	i	0.0	12	0.4	-9	0.65	2.1
CC1CCc2sc(NC(=O)C3CC(Cl)=CCC3C(=O)O)c(C#N)c2C1 (centres undefined)	-49	-77	-12	.	-0.8	3	0.1	0	0.61	0.1
CN(C)c1c(F)cc(-c2nn[nH]n2)cc1F	9	6	2.5	i	1.1	-18	2.9	1	0.65	-2.8
O=C1CN(c2nc(-c3ccccc3)c3cc(Br)ccc3n2)c2ccccc2N1	.	.	.	.	0.1	9	1.4	2	0.71	.
Clc1ccc(C(c2ccccc2)N2CCNCC2)cc1 (centres undefined)	.	.	.	.	0.1	-27	3.0	2	0.64	.
O=C(Cc1cccc(C(F)(F)F)c1)NCC(c1ccco1)N1CCCCC1 (centres undefined)	1	1	0.0	i	-0.2	7	4.3	-6	0.71	2.0
O=[N+]([O-])/C(C(=C(Cl)Cl)N1CCOCC1)=C1\NCCO1	11	-3	-0.8	i	-0.7	-3	4.8	2	0.7	1.1
COC(=O)c1ccc(OCCn2cnc3ccccc3c2=O)cc1	.	.	.	.	-1.9	8	-2.2	4	0.69	.
Cc1cccc(NS(=O)(=O)c2c(C)nc3scc(C)n3c2=O)c1	-1	4	1.0	i	0.1	-13	6.5	-6	0.66	0.1
Cc1cc(C)n(CC(O)COc2ccc3ccccc3c2)n1 (centres undefined)	-29*	-3.0*	0.9*	i	-4.1	-17	3.9	-1	0.7	-2.9
O=C(Nc1ccccc1C(=O)Nc1ccc(Br)cn1)c1cccc([N+](=O)[O-])c1	.	.	.	i	0.1	-30	6.0	27	0.71	-4.0
CC(=O)Nc1ccc(NC(=O)CCn2nnc3ccccc32)cc1	14	9	0.1	i	0.5	-9	2.4	1	0.69	0.0
CCO[C@H]1OC(C(=O)NCc2ccccc2)=C[C@@H](c2ccc3c(c2)OCO3)[C@@H]1CCCO	-13	-20	11	i	-0.4	-5	0.4	3	.	1.1

Reformatted: two of the compounds above.
The line under a structure holds: Ecoli rRNA inh, Ecoli rRNA inh OD600, Ecoli rRNA inh RFP, FGF22 binding, A1 inh, T cruzi repl, UCH37 inh, Beta apoptosis, E coli growth, AF4-AF9 inh
Cc1cc(S(=O)(=O)n2cnc3cc([N+](=O)[O-])ccc32)ccc1Cl
 : 19, 4, -1.0, i, 0.4, -8, 5.3, -4, 0.66, 1.7
O=C(/C=C/c1ccc(Cl)cc1Cl)NC(=S)Nc1ccccn1
 : ., ., ., ., -0.3, -3, 3.5, 9, 0.73, .

Other structures follow.
molecule	Ecoli rRNA inh	Ecoli rRNA inh OD600	Ecoli rRNA inh RFP	FGF22 binding	A1 inh	T cruzi repl	UCH37 inh	Beta apoptosis	E coli growth	AF4-AF9 inh
COc1ccc(NC(=O)CN2C(=O)C(c3ccccc3)=NC23CCCCCC3)cc1	.	.	.	.	-0.1	17	1.0	7	0.65	.
N#CC1(NC(=O)COC(=O)c2cc([N+](=O)[O-])ccc2N2CCOCC2)CCCCC1	-2	-1	-2.5	i	1.7	-2	10	6	0.64	1.5
O=C(c1ccc(-c2cc(Cl)ccc2Cl)o1)N1CCOCC1	-9	-7	14	i	-0.4	-6	0.8	-8	0.67	1.7
O=C(NCCCn1ccnc1)c1ccc(Br)s1	21	10	-0.9	i	-0.5	43	-0.2	-3	0.72	-0.7
Cc1cccc(NC(=O)CN2CCN(C(=O)C3CCN(C(=O)/C=C/c4ccccc4)CC3)CC2)c1C	7	12	3.4	i	0.0	.	5.0	4	0.65	0.7
COC(=O)c1c(NC(=O)c2cnccn2)sc2c1CCC2	.	.	.	.	-0.7	-1	0.1	.	0.72	.
O=C1CC(N2C(=O)/C(=C/C=C/c3ccccc3)SC2=S)C(=O)N1c1ccccc1 (centres undefined)	14	15	9.1	i	-0.5	10	9.2	4	0.7	-2.4
N#CC1=C(N)Oc2cc(N)ccc2C1c1cccnc1 (centres undefined)	.	.	.	.	-1.0	9	0.6	-5	0.64	.
COC(=O)c1ccc(CSc2nc3c(c(=O)n2-c2ccccc2)SCC3)o1	-3	-13	5.6	i	-0.5	17	3.9	4	0.74	22
CCOc1cc(CNC2CCCC2)cc(Cl)c1OCc1ccccc1	.	.	.	.	0.3	43	-0.7	17	0.66	.
COc1ccc(NCC(=O)N/N=C/c2c(C)nn(Cc3ccccc3)c2Cl)cc1	-14*	6.2*	3.2*	i	0.2	3	.	-6	.	0.9
COc1ccc(C(C(=O)NC2CCCCC2)N(Cc2ccco2)C(=O)c2snc(C(N)=O)c2N)cc1 (centres undefined)	23	9	1.7	i	.	-3	-25	.	0.64	2.4
Cc1nn(-c2ccccc2)c(Cl)c1C(=O)NCCN(C)C	27	15	3.0	i	0.1	0	4.3	4	0.67	-1.4
COc1ccc(NC(=O)CSCC(=O)NCc2ccco2)cc1	0	10	-2.6	i	-0.4	-2	0.0	.	0.71	-1.4
Clc1ccc(CSc2nccn2Cc2ccccc2)cc1	.	.	.	.	0.1	16	3.2	-12	0.73	.
Cc1cccc(S(=O)(=O)c2c(N)n(-c3ccccc3)c3nc4ccccc4nc23)c1	4	-9	5.8	i	-0.6	7	-413	-4	0.65	-2.8
Cc1ncc(CSCC(=O)Nc2cc(C(F)(F)F)ccc2Cl)c(CO)c1O	5	3	-4.5	i	-0.8	-3	-9.9	0	0.64	3.5
O=C(Nc1ccccc1C(F)(F)F)c1cc(S(=O)(=O)N2CCC3(CC2)OCCO3)ccc1F	.	.	.	.	0.0	-15	2.6	0	0.75	.
COc1cccc(C(=O)Nc2ccncc2)c1OC	12	10	1.6	i	-0.1	-6	1.0	-2	0.65	-8.3
CCOC(=O)[C@@H]1[C@H]2COc3ccc(Br)cc3[C@H]2N2C(=O)N(c3cccc(F)c3)C(=O)[C@]12C	3	4	-9.6	i	0.1	-3	-1.1	1	.	1.2

Complete entries from above.
COC(=O)c1c(NC(=O)c2cnccn2)sc2c1CCC2 is listed with Ecoli rRNA inh = .; Ecoli rRNA inh OD600 = .; Ecoli rRNA inh RFP = .; FGF22 binding = .; A1 inh = -0.7; T cruzi repl = -1; UCH37 inh = 0.1; Beta apoptosis = .; E coli growth = 0.72; AF4-AF9 inh = .
O=C(Nc1ccccc1C(F)(F)F)c1cc(S(=O)(=O)N2CCC3(CC2)OCCO3)ccc1F is listed with Ecoli rRNA inh = .; Ecoli rRNA inh OD600 = .; Ecoli rRNA inh RFP = .; FGF22 binding = .; A1 inh = 0.0; T cruzi repl = -15; UCH37 inh = 2.6; Beta apoptosis = 0; E coli growth = 0.75; AF4-AF9 inh = .
